Source: PubChem
B2AR ag: human beta-2 adrenergic receptor agonism by FAP; response, % (concentration not given with the values); P07550; AID 504454; Am2.2-beta2AR cells, FAP receptor internalization, flow cytometry; reference of the scale not given here; hit rate 0.43% among 340,000;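 active means response above a set limit, near 3 SD of response in nonfluorescent compounds, cut at about 42% in these data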;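 further: stock transfer was 100 nL into about 11 µL; a reference agonist was the positive control; negative values mostly stem from fluorescent compounds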
Target sequence (P07550 whole entry, looked up): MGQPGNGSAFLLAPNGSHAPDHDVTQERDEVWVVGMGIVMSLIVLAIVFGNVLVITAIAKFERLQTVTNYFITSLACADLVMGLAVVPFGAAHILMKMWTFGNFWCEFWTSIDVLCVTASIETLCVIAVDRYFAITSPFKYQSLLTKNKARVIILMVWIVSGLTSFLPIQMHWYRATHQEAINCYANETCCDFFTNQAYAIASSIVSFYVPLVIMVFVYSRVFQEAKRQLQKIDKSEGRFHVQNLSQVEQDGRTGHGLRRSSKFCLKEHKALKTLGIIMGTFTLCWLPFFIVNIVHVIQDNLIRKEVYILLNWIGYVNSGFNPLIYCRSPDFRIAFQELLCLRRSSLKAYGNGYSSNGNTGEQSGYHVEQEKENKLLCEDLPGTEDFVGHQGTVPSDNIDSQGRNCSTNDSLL
Ecoli growth: inhibitors of Escherichia coli growth; AID 1053175; hit rate 0.21% among 330,000; OD600, 23 h; active compounds read low; OD600 absorbance (concentration not given with the values);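 active means OD600 absorbance below the run mean of sample wells minus 3.6 SD, in any replicate, cut at about 0.56 in these data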;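 further: stock transfer was 300 nL into about 60 µL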
ALR inh: inhibitors of human sulfhydryl oxidase ALR | purified ALR, DTT oxidation, H2O2 HRP-luminol luminescence | P55789 | inhibition, % (test concentration not listed) | hit rate 3.8% among 290,000;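 active means mean and each replicate at 75% or more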;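 further: stock transfer was 7.5 nL into about 7.5 µL; 0% = neutral wells and 100% = wells with inactivated enzyme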
Target sequence (P55789 whole entry, looked up): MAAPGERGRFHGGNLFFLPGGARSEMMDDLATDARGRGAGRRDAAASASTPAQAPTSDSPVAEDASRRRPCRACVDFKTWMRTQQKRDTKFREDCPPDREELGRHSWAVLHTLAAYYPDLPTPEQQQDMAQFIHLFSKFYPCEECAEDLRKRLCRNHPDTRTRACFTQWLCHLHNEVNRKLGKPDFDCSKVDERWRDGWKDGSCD
HNF4A DNA FP: change in binding of human HNF4 alpha to DNA; P41235; HNF4a-FITC DNA binding, fluorescence polarization, 1 h; activity change, % at 10 µM; hit rate 0.3% among 360,000; in the data active means activity change above about 30%, passing the limit was not always enough;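 further: controls were the assay level and a saturating level of protein; the project sought stronger binding though the title names inhibitors; some compounds called inactive have numbers as strong as hits; positive values seem to mean higher polarization but the record does not say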
FGF22 binding: shifts melting point of recombinant human FGF22; Q9HCT0; recombinant FGF22 thermal shift, SYPRO orange fluorescence; percent of sucrose octasulfate shift, DMSO zero; calls only at 9.99 µM; hit rate 1.5% among 340,000;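 active means melting point raised past a set limit in the mean and every replicate; three in four hits are not shown here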
Target sequence (Q9HCT0 whole entry, looked up): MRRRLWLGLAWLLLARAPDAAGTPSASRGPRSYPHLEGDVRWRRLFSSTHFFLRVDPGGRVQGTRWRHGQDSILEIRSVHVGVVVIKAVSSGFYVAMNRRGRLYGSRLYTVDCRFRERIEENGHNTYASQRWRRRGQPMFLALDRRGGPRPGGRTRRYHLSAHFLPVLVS
LANA-H2A inh: blocks KSHV LANA binding to histone H2A/H2B; Q9QR71; cell-free LANA-H2A/H2B peptide, fluorescence polarization; hit rate 0.6% among 320,000; inhibition, % (test concentration not listed); AID 2629; in the data active means inhibition mostly above about 10%, no sharp cut-off; inactive means mostly below about 6.7%;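 further: stock transfer was 7.5 nL into about 10 µL; 0% = median of vehicle wells and 100% = median of positive control wells; one replicate is shown; the record names a cut of 25% in any replicate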
UCH37 DUB inh: inhibitors of human deubiquitinating enzyme UCH37. Q9Y5K5. purified proteasome/UCH37, Ub-AMC cleavage fluorescence. inhibition, % (concentration not given with the values). hit rate 0.33% among 330,000. AID 588478;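 active means mean of two replicates above 20%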;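 further: 0% = compound-free wells with enzyme and 100% = wells lacking proteasome; stock transfer was 100 nL into about 20 µL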
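Material: Human UCH37 enzyme supplied as purified proteasome complex | Schedule: 30 min compound-proteasome preincubation then 25 min substrate reaction, room temperature | Detection: AMC fluorescence from Ub-AMC cleavage, excitation 355 nm, emission 460 nm | Benchmarks: Wells without proteasome as full block, compound-free enzyme plus substrate as uninhibited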
Numbers without * were called inactive; i = inactive; x = not tested or not shown. The list is partial, so the mix of outcomes need not match the whole.

Every second line gives: B2AR ag	Ecoli growth	ALR inh	HNF4A DNA FP	FGF22 binding	LANA-H2A inh	UCH37 DUB inh
COc1ccc(C(c2nnnn2Cc2ccccc2)N2CCN(C(=O)c3ccco3)CC2)cc1OC (centres undefined)
 : -1	0.73	-6	2.9	x	-13	2.6
Cc1ccc(NC(=O)COC(=O)c2c(-c3ccccc3)noc2C)c(C)c1
 : 0	0.67	x	1.0	i	0.1	1.7
CS(=O)(=O)Nc1ccccc1C(=O)NC1CC2CCC1C2 (centres undefined)
 : 2	0.67	-6	-2.6	x	4.9	-44
COC(=O)C(NC(=O)C(CC(C)C)NC(=O)C1CCC(C)CC1)C(C)C (centres undefined)
 : 6	0.72	-18	-1.7	x	-0.4	2.6
Cc1cc(-c2ccc(C(C)C)c(S(=O)(=O)Nc3ccccn3)c2)on1
 : 0	0.69	-2	-3.4	x	-2.9	-23
COc1ccccc1NC(=O)Cn1cc(C(=O)c2ccco2)c2ccccc21
 : -7	0.7	-12	1.9	i	-3.7	2.0
COc1ccc(N2CCN(C(=O)Cn3nnc(-c4ccc(OC)c(OC)c4)n3)CC2)cc1
 : 9	0.72	-11	4.4	i	-7.4	0.1
CC1=[N+]([O-])C(C)(C)N(O)C1(C)C
 : 4	0.69	-8	3.0	i	-1.5	2.0
CCOC(=O)N1CCN(C(=O)CSc2nc3c([nH]c4ccccc43)c(=O)n2CCOC)CC1
 : 2	0.73	-29	7.2	i	-0.3	-1.1
COc1ccc(C2NC(=O)NC(C)=C2C(C)=O)cc1 (centres undefined)
 : -1	0.69	-6	8.1	x	9.2	4.0
COc1ccc(-c2nc3ccccc3n2OCC(=O)O)cc1
 : -7	0.69	-27	1.9	x	1.9	3.1
Cn1ncc(Br)c1NC(=O)Nc1ccc(OC(F)(F)F)cc1
 : -8	0.61	-17	-2.3	i	9.0	5.4
CCN1CCN(c2ncnc3sc(C)c(-c4ccccc4)c23)CC1
 : 7	0.66	-4	4.4	i	2.4	-0.3
Cc1ccc(-n2ncc(C(=O)Nc3cc(Cl)ccc3Cl)c2C2CCNCC2)cc1
 : 27	0.67	-15	2.1	i	-0.7	-0.7
COc1ccc(CN(C(=O)c2ccc3c(c2)OCCO3)C(C(=O)NC2CCCCC2)c2ccc3ncccc3c2)cc1 (centres undefined)
 : -8	0.69	-3	1.5	x	-0.2	1.4
CCCCC[C@H]1CN(C2CCCCC2)C(=O)[C@@H]1CC(=O)NCc1ccc(OC)cc1
 : -10	x	2	0.1	i	5.4	2.8
Cc1cccn2cc(-c3ccc4c(c3)NC(=O)CO4)nc12
 : 9	0.65	16	2.8	i	-2.5	0.1
COc1ccc(S(=O)(=O)n2oc(=O)cc2-c2ccccc2)cc1
 : -7	0.73	-10	-2.0	x	-2.2	4.2
CC(=O)OC1CC2(C)C(=O)CCC2C2CCc3cc(O)ccc3C12 (centres undefined)
 : 3	0.69	14	-5.4	i	1.1	2.7
Cc1nn2c(N3CCN(C)CC3)cc(C(C)(C)C)nc2c1-c1ccccc1
 : 8	0.64	5	0.8	i	-6.7	-18
C=CCSc1nc(Cc2ccc(Cl)cc2)nc2ccccc12
 : -8	0.67	4	-2.4	x	-0.8	-0.8
Cc1cc(OC(=O)c2c(C)cc(O)cc2O)cc(O)c1C(=O)O
 : 3	x	31	0.6	i	6.8	x
Cn1cccc1/C=N/NC(=O)c1sc2cc(Cl)ccc2c1Cl
 : x	x	28	x	i	-2.8	x
COc1cc2[nH]c(=O)n(CCCCCC(=O)NCCc3c[nH]c4ccccc34)c(=O)c2cc1OC
 : 13	0.68	x	1.6	x	7.2	4.2
c1ccc(COc2ccc(Nc3ncnc4nc[nH]c34)cc2)cc1
 : 0	0.72	3	-2.4	i	-1.2	1.3
CC(C)(C)c1ccc(NC(=O)N2CCCN(c3ccc([N+](=O)[O-])cn3)CC2)cc1
 : 10	0.63	0	-3.4	i	-7.7	2.4
O=C(C/C=N\OCc1ccc(Cl)cc1Cl)Nc1ccccc1
 : -3	x	-26	3.0	x	-0.9	x
COc1ccc(N(C(=O)c2ccco2)C(C(=O)NC2CCCC2)c2ccc(C)cc2)c(OC)c1 (centres undefined)
 : 4	0.67	x	-1.5	i	x	2.0
COc1ccc(CC2c3cc(OC)c(OC)cc3CC[N+]2(C)CCC(=O)OCCCCCOC(=O)CC[N+]2(C)CCc3cc(OC)c(OC)cc3C2Cc2ccc(OC)c(OC)c2)cc1OC (centres undefined)
 : -7	0.7	x	9.2	i	2.5	1.9
Cc1cc(OC(=O)c2ccc(S(=O)(=O)N3CCCCC3)cc2)c([N+](=O)[O-])c(=O)[nH]1
 : 9	0.7	-13	3.6	i	2.8	8.6
CC1CCCN(C(=S)NCCc2ccccc2)C1 (centres undefined)
 : 1	0.65	-9	-1.5	x	-1.2	-0.6
CS(=O)(=O)c1ccc(-n2nnc3ccccc32)c([N+](=O)[O-])c1
 : -3	0.71	-23	2.3	i	-6.5	-0.8
Clc1cccc(C2Nc3cccc4cccc(c34)N2)c1Cl
 : 6	0.68	-3	1.1	i	2.3	3.7
O=C(NCc1ccccc1Cl)c1cccc(NC(=O)c2ccccc2)c1
 : 8	0.68	-6	4.4	x	2.6	6.7
Cc1ccccc1CN1C2=NCCN2c2ccccc21
 : -3	0.66	99*	-1.1	x	0.5	-0.2
CC1Oc2ccccc2N(CC(=O)NCCCN2CCOCC2)C1=O (centres undefined)
 : 4	0.65	-1	0.3	i	5.3	1.6
COc1ccc2c(c1)O/C(=C\c1ccco1)C2=O
 : 8	0.71	-5	-1.1	i	-0.9	-12
CC(=O)C(=Cc1cn(-c2ccccc2)nc1-c1ccccc1)C(C)=O
 : 2	0.73	20	1.9	i	6.0	1.9
COCCNc1nnnc2c1sc1nc(N3CCOCC3)c3c(c12)CC(C)(C)OC3
 : -5	0.71	-4	1.0	x	-2.7	3.7
CCC(=O)N1c2ccccc2-c2nnc(SC)nc2OC1c1ccc(OC)c(OC)c1 (centres undefined)
 : -4	0.67	x	2.4	i	2.8	6.0
Nc1c(Br)cc(Br)c(N2CCCC2=O)c1Br
 : -13	0.73	-4	-4.3	x	6.6	-6.5
COc1ccc(C(C)=O)cc1COC(=O)c1cccnc1SC
 : -4	0.67	2	0.8	i	-1.9	1.8
Cc1c(C(=O)N/N=C/c2ccc(O)c(Br)c2)sc(N)c1C#N
 : -1	x	56	23	x	3.6	x
CCOC(=O)C1=C(CP(=O)(c2ccccc2)c2ccccc2)NC(=O)NC1c1ccc(Cl)cc1 (centres undefined)
 : -6	0.69	-103	2.0	x	-0.3	1.4
COc1ccc(Cl)cc1Nc1nc(N)c2ccccc2n1
 : 7	0.59	x	-2.6	x	-2.0	-23
O=C(/C(=C(\[O-])c1ccccc1)[n+]1ccc2ccccc2c1)c1ccc([N+](=O)[O-])cc1
 : 6	x	-5	0.3	x	5.2	x
O=C(COC(=O)c1ccc(O)cc1)NCCc1c[nH]c2ccccc12
 : 4	0.65	3	-1.2	i	1.7	1.2
Cc1nc(-c2c(C(=O)NNC(=O)Nc3c(C)cccc3C)noc2C)cs1
 : 2	0.64	12	-4.1	i	2.1	2.1
C#CCOCCOCCOCCNc1nc(N2CCN(C(=O)C([C@@H](C)O)n3cc([C@@H](N)CCCCN)nn3)CC2)nc(N2CCN(C(=O)[C@H](CO)n3cc([C@@H](N)C(C)C)nn3)CC2)n1 (some centres undefined)
 : -6	x	-2	78*	i	-8.3	-1.6
Cn1c(=O)c2c(nc(Oc3ccccc3)n2C)n(C)c1=O
 : -2	0.69	-1	-1.2	x	-3.2	1.7

Reprinted from the listing, 2 compounds:
Every second line gives: B2AR ag	Ecoli growth	ALR inh	HNF4A DNA FP	FGF22 binding	LANA-H2A inh	UCH37 DUB inh
COc1ccc(Cl)cc1Nc1nc(N)c2ccccc2n1
 : 7	0.59	x	-2.6	x	-2.0	-23
O=C(/C(=C(\[O-])c1ccccc1)[n+]1ccc2ccccc2c1)c1ccc([N+](=O)[O-])cc1
 : 6	x	-5	0.3	x	5.2	x

Remaining list, next part.
Every second line gives: B2AR ag	Ecoli growth	ALR inh	HNF4A DNA FP	FGF22 binding	LANA-H2A inh	UCH37 DUB inh
CCCOc1ncnc2c1sc1nc3c(cc12)COC(C)(C)C3
 : -12	0.62	4	0.9	i	6.4	-3.1
Cc1cccc(C(=O)N2CCN(c3ccc([N+](=O)[O-])c(N4CCOCC4)c3)CC2)c1
 : 8	0.74	-8	-1.8	x	-0.9	6.8
O=C(NCc1ccccn1)c1ccc(NS(=O)(=O)c2cccc([N+](=O)[O-])c2)cc1
 : -2	0.7	-3	-0.9	i	-1.4	4.8
Cc1nnc(SCC(=O)NC(C)(C)C)n1C1CCCCC1
 : 5	0.68	3	-1.0	i	0.0	2.2
CC(=O)c1cccc(NC(=O)c2cc(-c3ccco3)on2)c1
 : 6	0.64	x	-0.3	i	-0.1	0.7
Cc1ccc(-c2cc(C(=O)N/N=C/c3cccnc3)c3ccccc3n2)cc1C
 : -4	x	-1	3.8	i	-3.0	x
CC(Oc1cc2oc(=O)cc(-c3ccccc3)c2cc1Cl)C(=O)NCC1CCC(C(=O)O)CC1 (centres undefined)
 : -3	0.66	0	-0.5	i	2.7	-1.0
COc1ccc(OCCNC(=O)CSc2ccc(C(F)(F)F)cc2[N+](=O)[O-])cc1
 : -9	0.7	4	2.9	x	-3.5	3.0
CCOC(=O)CCSc1nc(C)cc(C(F)(F)F)c1C#N
 : -83	0.67	x	28	x	0.2	-0.4
Cc1ccc(S(=O)(=O)NCCC(=O)Nc2ccc(S(=O)(=O)NC(C)C)cc2)cc1
 : 2	0.7	1	2.2	i	3.2	6.0
O=C(NC(=O)c1ccccc1)C1=C(N2CCCC2)COC1=O
 : -10	0.62	-1	2.8	i	5.4	1.3
NNC(=O)[C@H](Cc1ccccc1)NC(=O)NCCc1ccccc1
 : 0	0.68	2	-1.2	i	-0.4	-0.2
COCCNC(=O)C(OC(=O)c1cccs1)c1ccccc1 (centres undefined)
 : 3	0.67	-2	-3.9	x	-8.4	1.4
CCN(CC)C(=O)Cn1cnc2c1c(=O)n(C)c(=O)n2C
 : -12	0.66	x	-2.4	x	0.3	2.3
O=C(COC(=O)CCC(=O)c1ccc(F)cc1)Nc1cccc(S(=O)(=O)N2CCOCC2)c1
 : -4	0.71	-6	-0.2	i	6.1	2.3
Cc1c(C(=O)OCc2nc3scc(-c4ccccc4)c3c(=O)[nH]2)cccc1[N+](=O)[O-]
 : -4	0.7	-8	1.4	x	-2.1	6.8
CN(c1ccccc1)c1ccc(/C=C(\CCC(=O)O)c2nc3ccccc3s2)cc1[N+](=O)[O-]
 : 11	0.7	5	-15	i	-1.7	16
CCc1ccccc1N(CC(=O)NC1CCCCC1)C(=O)CCC(=O)Nc1ccccn1
 : -2	0.71	-1	-0.1	i	7.5	-0.4
COc1cc2c(C(=O)N3CCN(C4CCCCC4)CC3)cn(CC(C)C)c(=O)c2cc1OC
 : x	0.76	-13	x	x	-3.4	1.6
COc1ccc(CN2CCN(CCc3ccccc3)C(CCO)C2)c(O)c1 (centres undefined)
 : -3	0.67	4	-2.1	i	-3.3	2.4
COc1ccccc1N(CC(=O)N1CCN(c2ccc(F)cc2)CC1)S(=O)(=O)c1ccc(C)cc1
 : 1	0.7	4	-1.5	i	-2.7	0.0
COC(=O)c1cc(NS(=O)(=O)c2ccc(N3CCCCCC3)c([N+](=O)[O-])c2)cc(C(=O)OC)c1
 : -9	0.74	-4	-1.9	x	0.8	1.7
CC(C)(C)n1nnnc1C(c1ccccc1)N1CCc2ccccc2C1 (centres undefined)
 : 10	0.71	-1	2.1	x	-1.1	2.6
N#CCC(CNc1ncc(C(F)(F)F)cc1Cl)OC(=O)c1cccc([N+](=O)[O-])c1 (centres undefined)
 : -4	0.68	-1	0.2	x	-0.8	6.0
O=C(CCN1C(=O)S/C(=C\c2ccc(Cl)cc2)C1=O)Nc1ccc(C(=O)O)cc1
 : 2	0.7	3	-2.6	i	-3.2	9.7
Cc1cc([N+](=O)[O-])nn1CC(=O)N/N=C/c1ccccc1F
 : -6	x	0	2.6	i	-6.2	x
